High-throughput results as filed in PubChem.
Cruzain noTriton: blocks cruzain activity in detergent-free assay | AID 1476 | 200,000 compounds, 2.3% hits | Potency, µM, inactives show max response, negative = inhibition, most hits filed as inhibitors | purified cruzain, Z-FR-AMC fluorescence, no detergent | P25779;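 further: plate controls were enzyme without inhibitor for no effect and buffer without enzyme for full effect; nearly all actives have a fitted effect of over 40% in size; top concentration of the series not given in the record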
Target sequence (P25779 123-467 limits assumed): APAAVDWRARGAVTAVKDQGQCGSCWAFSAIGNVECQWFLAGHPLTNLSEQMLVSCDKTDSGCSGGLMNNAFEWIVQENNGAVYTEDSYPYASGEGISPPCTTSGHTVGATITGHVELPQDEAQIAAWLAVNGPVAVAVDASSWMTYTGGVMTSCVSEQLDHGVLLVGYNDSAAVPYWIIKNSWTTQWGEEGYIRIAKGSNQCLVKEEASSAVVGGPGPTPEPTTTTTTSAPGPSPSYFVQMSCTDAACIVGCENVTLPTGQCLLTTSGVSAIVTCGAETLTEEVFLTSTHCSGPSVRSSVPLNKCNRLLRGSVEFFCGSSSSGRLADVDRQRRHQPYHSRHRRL
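Purified cruzain at 1.5 nM, pre-incubated 15 min with compound at room temperature in 100 mM sodium acetate pH 5.5, 5 mM DTT, 0.00005% Triton X-100. Reaction started with 2 uM Z-FR-AMC; AMC fluorescence increase over 60 s gives rate.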
Cruzain inh Det: cruzain (T. cruzi) inhibition with detergent; P25779; purified cruzain, Z-FR-AMC fluorescence, 0.01% Triton; Potency, µM, without a hit: max response, negative = inhibition, actives largely listed as inhibitors; 200,000 compounds, 0.43% hits; AID 1478;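 further: plate controls were neutral wells for no effect and buffer without enzyme for full effect; nearly all actives have a fitted effect of over 40% in size; top concentration of the series not given in the record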
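Z-FR-AMC hydrolysis (2 uM substrate) by cruzain (1.5 nM) monitored kinetically at ex 360/em 450 nm after 15 min room-temperature compound exposure; 0.01% Triton X-100, pH 5.5, 5 mM DTT.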
RE007 growth inh: less growth of the S. pombe RE007 Vpr strain. S. pombe RE007 Vpr strain, BacTiter-Glo ATP luminescence, 24 h; control for the full effect not named in the record. Potency, µM (series often up to 92.2 µM), for the others: top-dose activity change, negative = less growth. 360,000 compounds, 0.21% hits; active = well fitted falling curve with a large enough effect; inconclusive = small, poorly fitted or top-dose-only effect; inactive = no such curve, though single readings can be large or run the other way;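 further: on the % scale 0 is the no-effect control and ±100 the full control effect; nearly all actives have a fitted effect of over 50% in size; the assay follows cell death caused by Vpr and the record does not say whether a fall means rescue or toxicity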
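Fission yeast strain RE007, carrying one chromosomally integrated HIV-1 vpr copy, was seeded at OD 0.01 in PMG+AL medium with 23 nL pinned compound. After 24 h at 30 °C and 99% humidity, viability was read by BacTiter-Glo luminescence.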
NS1 inh: inhibitors of influenza NS1 protein function; S. cerevisiae slowed by influenza A NS1, growth recovery by OD600; Potency, µM (titrated, usually from 46.1 µM), without a hit: top-dose activity, positive = more growth; 270,000 compounds, 0.4% hits; active means well fitted rising curve with a large enough effect; inconclusive means small, poorly fitted or top-dose-only effect; inactive means no such curve, though single readings can be large or run the other way; further: nearly all actives have a fitted effect of over 50% in size
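Recovery from NS1-induced slow growth read by OD600 in budding yeast switched to galactose assay medium (pH 6.0, -URA) at 1:100 dilution. Compound 23 nl per well; the matching strain lacking NS1 serves as control.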
MARV entry inh: Marburg virus entry inhibition; Marburg virus pseudotyped entry inhibition, cell reporter; control for the full effect not named in the record; about a third of the inactives were read at about 46 µM; Potency, µM (doses to about 37.8 µM), inactives show top-dose activity change, negative = inhibition, usual class: inhibitors; 300,000 compounds, 1.8% hits; AID 540276; active = well fitted inhibition curve with a large enough effect; inconclusive = small, poorly fitted or top-dose-only effect, or effect the other way; inactive = flat fitted curve, though single readings scatter; tested in HEK293 cells; about a fifth of its hits are not listed in these tables; further: on the % scale 0 is the no-effect control and ±100 the full control effect; luciferase read-out
StopGo reporter: FMDV 2A StopGo reporter, luciferase signal; 410,000 compounds, 1.2% hits; Potency, µM (highest dose often 57.9 µM), for inactives: at the top dose signal change, negative = less light; AID 1159524; human cells with a luciferase reporter of 2A StopGo recoding; control for the full effect not named in the record; active = well fitted falling curve with a large enough effect; inconclusive = small, poorly fitted or top-dose-only effect; inactive = no such curve, though single readings can be large or run the other way; tested in HEK293T cells; further: on the % scale 0 is the no-effect control and ±100 the full control effect; nearly all actives have a fitted effect of over 45% in size; luciferase light after 4 h
LASV entry inh: blocks Lassa virus binding to or entry into cells; Potency, µM (highest dose often 37.9 µM), without a hit: at the top dose activity change, negative = inhibition, most hits filed as inhibitors; Lassa virus pseudotype entry inhibition, cell reporter; control for the full effect not named in the record; 300,000 compounds, 1.2% hits; active means well fitted inhibition curve with a large enough effect; inconclusive means small, poorly fitted or top-dose-only effect, or effect the other way; inactive means flat fitted curve, though single readings scatter; tested in HEK293 cells; further: on the % scale 0 is the no-effect control and ±100 the full control effect; nearly all actives have a fitted effect of over 50% in size; luciferase read-out
SARS PLpro yeast: SARS-CoV PLP inhibition in yeast; AID 485353; 330,000 compounds, 0.19% hits; Potency, µM (series often up to 32.9 µM), inactives show top-dose activity, positive = growth rescue; S. cerevisiae expressing SARS-CoV PLpro, growth rescue; control for the full effect not named in the record; active means well fitted rising curve with a large enough effect; inconclusive means small, poorly fitted or top-dose-only effect; inactive means no such curve, though single readings can be large or run the other way; further: 0% is about no effect; nearly all actives have a fitted effect of over 55% in size; growth read by luminescence after 48 h
Starred values were filed as active, the others as inactive; ? = inconclusive; . = not tested or not shown; & = joins results of further samples; [ ] = remark or other dose. Unless noted, the call rests on the fitted dose curve; in most records, active means well fitted curve in the direction sought with a large enough effect; inconclusive means small, poorly fitted or top-dose-only effect, or another doubt; inactive means no such curve, though single readings can be large; an effect the other way counts as inactive or inconclusive. Potency means the concentration at half of the fitted maximal effect.

1: C/C(=C/C=N/Nc1nc(N2CCCCC2)nc(N2CCCCC2)n1)c1ccccc1
2: O=C(CSc1ccc(F)cc1)NC(=O)NCc1ccccc1
3: CCCCN(CC)CCCNC(=O)Cn1nc(CC)n2c(cc3sccc32)c1=O
4: Cc1ccccc1OCC(=O)Nc1ccc2c(c1)Cc1ccccc1-2
5: O=C(O)CNC(=O)c1ccc(OC(F)F)cc1
6: Cc1cc2c3c([nH]c2cc1S(=O)(=O)N1CCC2(CC1)OCCO2)CC(C)(C)CC3=O
7: O=C(c1cccs1)N1CCN(C23CC4CC(CC(C4)C2)C3)CC1
8: CC1(C)CC(NC(=O)c2cc(S(=O)(=O)N3CCOCC3)c(Cl)cc2Cl)CC(C)(C)N1
assay / entry	1	2	3	4	5	6	7	8
Cruzain noTriton	-19%	.	-18%	?	-7%	.	.	.
Cruzain inh Det	-0.1%	.	-4.3%	0.9%	2.6%	.	.	.
RE007 growth inh	16%	12%	.	20%	-1%	11%	7%	10%
NS1 inh	-1%	.	.	5%	5%	1%	-48%	.
MARV entry inh	.	2%[46.1 µM]	-1%[46.1 µM]	4%	9%	.	.	-6%
StopGo reporter	-6%	-8%	-8%	21%	.	?	-1%	-4%
LASV entry inh	-24%	.	.	15%	-7%	.	.	?
SARS PLpro yeast	7%	-3%	.	14%	7%	2%	-3%	2%

9: COc1cc(S(=O)(=O)Nc2ncn[nH]2)ccc1Cl
10: CC(=O)c1ccc(NC(=O)/C(=C\c2ccccc2)NC(=O)/C=C/c2ccccc2)cc1
11: Cn1c(-c2ccccc2)cnc1SCC(=O)NCc1ccco1
12: Cc1nc2ccccc2n1C1CCN(Cc2nnnn2CCc2ccccc2)CC1
13: CCOC(=O)N1CCN(C(=O)c2c[nH]c3ccc(S(=O)(=O)N(C)c4ccc(OCC)cc4)cc3c2=O)CC1
14: COc1cccc(-c2nnc(SCC(=O)N3CCCc4ccccc43)o2)c1
15: CCN(CC)c1nc(Nc2ccccc2)nc(Oc2ccc(C(=O)OC)cc2)n1
16: Cc1ccc(S(=O)(=O)Oc2ccc(/C=N/NC(=O)c3cccnc3)cc2)cc1
assay / entry	9	10	11	12	13	14	15	16
Cruzain noTriton	.	?	6%	3%	.	-9%	-7%	.
Cruzain inh Det	.	-1.9%	1.6%	-0.6%	.	3.1%	-4.4%	.
RE007 growth inh	14%	-1%	5%	8%	6%	10%	-15%	-3%
NS1 inh	10%	18%	-7%	-18%	-15%	-9%	-13%	4%
MARV entry inh	7%[46.1 µM]	-1%[46.1 µM]	3%	?	?	0%&0%[46.1 µM]	?	-12%[46.1 µM]
StopGo reporter	-14%	11%	.	?	-2%	-11%	?	2%
LASV entry inh	-5%	0%	15%	-25%	0%[46.1 µM]	-7%	2%	-3%
SARS PLpro yeast	-1%	3%	1%	-1%	-1%	-17%	-3%	0%

17: Cc1ccc(CC(=O)NC(C)CCc2ccccc2)cc1 (stereo unspecified)
18: O=C(CN1CCc2ccccc2C1)Nc1cccc(S(=O)(=O)N2CCCC2)c1
19: O=C(CSc1ccc2ccccc2n1)NCc1ccc2c(c1)OCO2
20: COc1ccc(NC(=O)C(c2ccccc2)N(C)C(=O)CNC(C)=O)cc1 (stereo unspecified)
21: CCCCNC(=O)C1c2cc(OC)c(OC)cc2C(=O)N(C)C1c1cccs1 (stereo unspecified)
22: COC(=O)c1cccc(NC(=O)c2cc3sccc3n2C)c1
23: COc1ccc2c(c1)c(C(O)CN1CCN(Cc3ccc4c(c3)OCO4)CC1)c(C)n2C (stereo unspecified)
24: CCOC(=O)Cc1csc(NC(=O)c2ccc(S(=O)(=O)N3CCOCC3)cc2)n1
assay / entry	17	18	19	20	21	22	23	24
Cruzain noTriton	-3%	.	.	-3%	.	25µM*	11%	.
Cruzain inh Det	-0.1%	.	.	1.7%	.	-17%	4.2%	.
RE007 growth inh	4%	-13%	23%	3%	9%	3%	-22%	4%
NS1 inh	-7%	.	.	4%	.	-25%	1%	.
MARV entry inh	10%	?	-1%[46.1 µM]	9%	7%[46.1 µM]	14%	?	?
StopGo reporter	2%	-15%	5%	7%	0%	16%	0%	-20%
LASV entry inh	?	-11%	3%	26%	4%[46.1 µM]	51%[14.3 µM]	?	-3%
SARS PLpro yeast	-9%	-5%	-5%	5%	-2%	-4%	-43%	-4%

Reformatted: three of the compounds above
Every second line gives: Cruzain noTriton	Cruzain inh Det	RE007 growth inh	NS1 inh	MARV entry inh	StopGo reporter	LASV entry inh	SARS PLpro yeast
21. CCCCNC(=O)C1c2cc(OC)c(OC)cc2C(=O)N(C)C1c1cccs1 (stereo unspecified)
 : .	.	9%	.	7%[46.1 µM]	0%	4%[46.1 µM]	-2%
22. COC(=O)c1cccc(NC(=O)c2cc3sccc3n2C)c1
 : 25µM*	-17%	3%	-25%	14%	16%	51%[14.3 µM]	-4%
23. COc1ccc2c(c1)c(C(O)CN1CCN(Cc3ccc4c(c3)OCO4)CC1)c(C)n2C (stereo unspecified)
 : 11%	4.2%	-22%	1%	?	0%	?	-43%

(listing goes on)
25: c1cnc(NCCNc2ncccn2)nc1
26: CCc1ccccc1Nc1nc(N)nc(CSCC(=O)c2cc(C)n(C)c2C)n1
27: O=C(Nc1nnc(SCC(=O)N2CCCc3ccccc32)s1)c1cccc2ccccc12
28: CN1CCN(S(=O)(=O)c2ccc(N3CCN(S(=O)(=O)/C=C/c4ccccc4)CC3)nc2)CC1
29: CN1CCN(C(=O)/C=C/c2ccc(Cl)c(Cl)c2)CC1
30: CCc1ccccc1N(CC)C(=O)CCc1nc(-c2ccc(C)cc2)no1
31: COc1cc(CC(=O)NC2CCCc3ccccc32)cc(OC)c1OC (stereo unspecified)
32: CCn1c(SCC(=O)NCCc2ccccc2)nnc1-c1ccco1
assay / entry	25	26	27	28	29	30	31	32
Cruzain noTriton	6%	-1%	-85%	16%	.	24%	.	-6%
Cruzain inh Det	6.2%	-0.4%	-8.3%	-5.0%	.	-6.3%	.	-0.7%
RE007 growth inh	22%	-1%	-2%	0%	-6%	-3%	1%	16%
NS1 inh	-7%	6%	27%	-9%	6%	-153%	-4%	0%
MARV entry inh	9%	-11%	3%	3%&3%	-1%[46.1 µM]	?	?	5%
StopGo reporter	0%	-25%	-25%	5%	-7%	-9%	21%	-11%
LASV entry inh	7%	2%	-4%	-8%	?	10µM*	-17%[46.1 µM]	1%
SARS PLpro yeast	1%	6%	-10%	-8%	-5%	-20%	3%	-8%

33: CCOc1ccccc1CNC(=O)Cn1ncn2nc(-c3cccs3)cc2c1=O
34: O=C(NC1CCCCC1)Nn1c(-c2ccccc2)nc2ccccc2c1=O
35: Cc1noc(C)c1CSc1nc2ccccc2s1
36: Cc1nnc2ccc(N3CCN(C(=O)c4ccccc4)CC3)nn12
37: O=C(O)c1ccc(NS(=O)(=O)c2ccc3c(c2)C2C=CCC2C(c2ccccc2F)N3)cc1 (stereo unspecified)
38: c1ccc(-n2ncc3cccnc32)cc1
39: COc1cc(-c2nc3sccn3c2Nc2c(C)cccc2C)ccc1O
40: CCOC(=O)c1c(NC(N)=O)sc(C)c1C
assay / entry	33	34	35	36	37	38	39	40
Cruzain noTriton	13%	-5%	-9%	-6%	.	.	-6%	0%
Cruzain inh Det	-3.3%	-2.8%	-0.2%	-0.4%	.	.	-25%	-0.2%
RE007 growth inh	.	-10%	?	4%	23%	1%	.	-4%
NS1 inh	.	-7%	-15%	-2%	10%	8%	.	-161%
MARV entry inh	-27%[46.1 µM]	7%&7%	-9%	0%	-1%[46.1 µM]	.	?	1%
StopGo reporter	-11%	4%	-16%	-17%	5%	42%[activator]	-2%	-17%
LASV entry inh	-1%[46.1 µM]	5%	?	.	0%[46.1 µM]	.	-32%[46.1 µM]	-9%
SARS PLpro yeast	.	-2%	-6%	-9%	-1%	-3%	.	-30%

41: Cc1ccc(S(=O)(=O)N2CCN(C(=O)Cn3c(=O)cnc4ccccc43)CC2)c(C)c1
42: O=c1c2ccccc2nc(CN2CCOCC2)n1-c1ccccc1F
43: COC(=O)c1ccc(N2CCN(C(C)=O)CC2)c(NC(=O)c2cccnc2)c1
44: CC(=O)Nc1ccc(-n2nnnc2SCC(=O)N2CCN(C(=O)c3ccco3)CC2)cc1
45: O=C(CN1CCCCCC1)N/N=C/c1cccc(Cl)c1
46: O=C(Nc1ccccc1-c1nc2ccccc2[nH]1)c1ccc(N2C(=O)CCC2=O)cc1
47: CC1CCN(S(=O)(=O)c2ccc(NC(=O)CN3CCOCC3)cc2)CC1
48: S=C(NCCc1ccncc1)Nc1cccc2ccccc12
49: CCn1c(SCC(=O)NNC(=O)c2ccc(C)cc2)nnc1-c1ccco1
50: CC(C)(C)C(=O)NC1CC(=O)N(c2ccc3c(c2)OCCO3)C1 (stereo unspecified)
assay / entry	41	42	43	44	45	46	47	48	49	50
Cruzain noTriton	.	2%	.	-1%	-2%	.	11%	.	.	6%
Cruzain inh Det	.	3.3%	.	2.4%	-2.4%	.	3.6%	.	.	0.2%
RE007 growth inh	2%	19%	9%	30%	-24%	-28%	5%	-2%	9%	.
NS1 inh	.	-12%	-6%	12%	10%	-1%	0%	2%	2%	.
MARV entry inh	?	9%	?	13%	?	?	?	-4%[46.1 µM]	?	.
StopGo reporter	?	-9%	9%	-6%	9%	?	-17%	12%	4%	-6%
LASV entry inh	?	-3%	?	-4%	1%	5%	1%	14%	19%[46.1 µM]	20%[46.1 µM]
SARS PLpro yeast	0%	-3%	1%	4%	-9%	-1%	0%	-3%	0%	.
